# TRPML1 inh – inhibitors of human TRPML1 channel. Q9GZU1. activity change, negative = inhibition, % (no concentration beside the values). TRPML1-inducible cells, Ca2+ dye fluorescence, FDSS; stronger effect = lower value; inhibition of EC80 agonist-evoked calcium signal. actives 0.02% (n = 390,000); in the data active means activity change below about -50%; inconclusive means about -30% to -50%; inactive means above about -30%;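 further: stimulus is agonist 54-4 at its EC80 concentration; on the % scale 0 is the no-effect control and ±100 the full control effect; compound concentration not given in the record; the text of the record puts the active cut at -80%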
# Target sequence (Q9GZU1 whole entry, looked up): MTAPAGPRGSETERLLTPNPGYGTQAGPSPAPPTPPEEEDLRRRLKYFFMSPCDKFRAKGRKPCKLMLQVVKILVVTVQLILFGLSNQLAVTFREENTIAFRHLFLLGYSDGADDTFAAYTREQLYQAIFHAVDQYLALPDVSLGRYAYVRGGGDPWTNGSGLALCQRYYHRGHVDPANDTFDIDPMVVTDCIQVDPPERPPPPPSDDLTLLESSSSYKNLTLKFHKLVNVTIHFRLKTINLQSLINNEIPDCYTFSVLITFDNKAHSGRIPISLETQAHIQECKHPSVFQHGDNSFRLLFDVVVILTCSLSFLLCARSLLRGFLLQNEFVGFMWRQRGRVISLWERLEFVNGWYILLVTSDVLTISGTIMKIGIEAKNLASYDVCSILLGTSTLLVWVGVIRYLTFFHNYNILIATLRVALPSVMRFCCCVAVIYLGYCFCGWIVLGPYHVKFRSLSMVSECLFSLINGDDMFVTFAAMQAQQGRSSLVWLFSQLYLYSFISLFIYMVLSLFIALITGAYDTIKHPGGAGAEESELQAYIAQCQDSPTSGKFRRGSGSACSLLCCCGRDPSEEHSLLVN
#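 Calcium fluorescence in TRPML1-DL cells induced overnight with Tet: a 110 s read after compound pin addition, then a 110 s antagonist read after challenge with 54-4 at 4 uM final (EC80).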
# TRPML1 agonist – human mucolipin-1 channel agonism. TRPML1-expressing cells, Ca2+ dye fluorescence, FDSS; host cell line not named in the record; reference of the full effect not given here. actives 0.12% (n = 410,000). activation, % (test concentration not listed); in the data active = activation above about 50%; inconclusive = about 30% to 50%; inactive = below about 30%; further: 0% is about no effect; the text of the record puts the active cut at 80%
#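 In this qHTS format, compounds were pin-transferred onto Ca8-dye-loaded TRPML1-DL cells induced with Tet overnight, and intracellular Ca2+ fluorescence was recorded kinetically for 110 s after a 10 s baseline. A subsequent 4uM final 54-4 (EC80) addition followed by a second 110 s read served as the antagonist phase.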
# Six1-Eya2 inh – Six1/Eya2 interaction inhibition; Q15475+O00167; AlphaScreen GST-Six1/His-Eya2 binding, biochemical; stronger effect = lower value; control for the full effect not named in the record; activity change, % (test concentration not listed); actives 0.56% (n = 360,000); in the data active = activity change below about -65%; inconclusive = about -30% to -65%; inactive = above about -30%; further: on the % scale 0 is the no-effect control and ±100 the full control effect; compound concentration not given in the record
#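 AlphaScreen with GST-Six1 and His-Eya2 (5X mix: 250 nM and 500 nM), glutathione donor and nickel acceptor beads; buffer 50 mM Tris pH 8.0, 300 mM NaCl, 1 mM TCEP; 1 h at 37 C in the dark.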
# D2 ag – human D2 receptor agonism in beta-arrestin assay; P14416; actives 0.084% (n = 360,000); activation, % (no concentration beside the values); DiscoveRx PathHunter D2 beta-arrestin, luminescence, 90 min; 100% = 57 uM dopamine signal; in the data active = activation above about 40%; inconclusive = about 15% to 40%; inactive = below about 15%; further: compound concentration not given in the record; the text of the record calls up to 30% inactive
# Target sequence (P14416 whole entry, looked up): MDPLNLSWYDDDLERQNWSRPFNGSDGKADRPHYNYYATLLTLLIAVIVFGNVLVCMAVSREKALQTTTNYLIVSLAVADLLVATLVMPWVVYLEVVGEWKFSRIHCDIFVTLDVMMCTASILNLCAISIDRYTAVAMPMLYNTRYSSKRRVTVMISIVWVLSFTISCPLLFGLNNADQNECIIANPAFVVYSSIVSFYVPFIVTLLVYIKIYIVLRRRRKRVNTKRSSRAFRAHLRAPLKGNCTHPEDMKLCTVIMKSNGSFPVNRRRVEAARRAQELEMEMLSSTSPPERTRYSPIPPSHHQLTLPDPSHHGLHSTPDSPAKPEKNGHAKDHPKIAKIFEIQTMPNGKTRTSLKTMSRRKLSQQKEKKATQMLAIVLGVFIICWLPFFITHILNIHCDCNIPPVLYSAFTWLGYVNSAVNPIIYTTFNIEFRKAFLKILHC
#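 DiscoveRx PathHunter D2 beta-arrestin cells (2,100/well) attached overnight, then compound-stimulated 90 min at 37 C in HBSS/10 mM HEPES/0.1% Tween-20 buffer; beta-galactosidase complementation read by luminescence after 1 h at ambient temperature. Dopamine 57 uM final (EC100) as control.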
# PINK1 expr mod – changes PINK1 expression | actives 0.2% (n = 410,000) | Potency, µM (top dose mostly 76.6 µM), for inactives: at the top dose activation (PINK1 increase), most hits filed as activators | AID 624263 | PINK1 immunofluorescence, high-content cytometry, 24 h; active = well fitted activation curve with a large enough effect; inconclusive = small, poorly fitted or top-dose-only effect; inactive = flat fitted curve, though single readings scatter; cell line not stated here;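 further: potency means the concentration at half of the fitted maximal effect; % of control where 0% means no effect; nearly all actives have a fitted effect of over 65% in size; a mitochondrial uncoupler was the plate control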
#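 PINK1 protein, normally rapidly degraded, was detected by immunofluorescence after 24 hour compound treatment of a stable cell line. Titration data (5 concentrations) came from laser-scanning cytometry, with CCCP-treated wells as controls.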
# D2 potentiator – human D2 receptor positive allosteric modulation. P14416. DiscoveRx D2 beta-arrestin cells, luminescence, 90 min; 100% = 57 uM dopamine signal. potentiation, % (test concentration not listed). actives 0.23% (n = 360,000). AID 624464; active = potentiation of 50% or more; inconclusive = 30% to 50%; inactive = 30% or less;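 further: compound concentration not given in the record; tested on top of an EC20 dose of dopamine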
#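 D2 cells co-treated with compound plus 50 nM dopamine (EC20) for 90 min at 37 deg C to detect potentiation. Beta-arrestin recruitment was read as enzyme-fragment luminescence after 1 h at ambient temperature. Full response was set by 57 uM dopamine.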
# Numbers without * were called inactive; ? = inconclusive; . = no result given; [ ] = dose if it differs, or a comment.
nr | Molecule | TRPML1 inh | TRPML1 agonist | Six1-Eya2 inh | D2 ag | PINK1 expr mod | D2 potentiator
1 | C/C(=N\O)c1ccccc1C(=O)O | -0.3 | 0.5 | -5.8 | 1.6 | 1.7% | -17.1
2 | CCOc1ccccc1NC(=O)CSc1nc(N)c(C#N)cc1C#N | -15.4 | 0.2 | -8.9 | -2.1 | 9.7% | -9.5
3 | CCN(CC)c1ccc(-c2nc(-c3ccccn3)no2)cc1[N+](=O)[O-] | -1.0 | 0.6 | . | . | 0.2% | .
4 | CCOC(=O)c1cc2c(ccn2C)n1Cc1ccc(C#N)cc1 | 4.3 | -0.3 | ? | 1.0 | -1.0% | -16.2
5 | CCNC(=S)NNC(=O)c1cc(Br)cs1 | 20.9 | -0.5 | -3.0 | -4.8 | -1.1% | -37.1
6 | CCn1c(CNC(=O)c2cccc(C)c2)nnc1SCC(=O)Nc1cccc(OC)c1 | 40.5 | 1.1 | -2.0 | -2.0 | -2.0%[38.3 µM] | -1.4
7 | CCCCCCC(=O)Oc1ccc(N2C(=O)CCC2=O)cc1 | -1.9 | 1.0 | ? | 2.8 | 2.6% | -6.3
8 | CCOC(=O)c1cc(CC)sc1/N=C/C1C(=O)CC(C)(C)CC1=O | 1.8 | 0.9 | -10.8 | -3.6 | 6.2% | -8.0
9 | O=C(NCc1ccncc1)C12CC3CC(CC(C3)C1)C2 | 34.4 | 0.8 | 6.7 | 3.8 | -1.4% | 9.0
10 | COc1ccc2sc(/C=C/c3ccccc3O)[n+](C)c2c1 | 8.8 | 0.1 | -11.3 | -3.8 | 4.2% | -2.8
11 | COc1ccccc1CNC(=O)CCn1nc(C)c2c(C)n(-c3ccccc3)nc2c1=O | -1.7 | -1.0 | . | . | -1.5% | .
12 | Cc1cc(=O)oc(C)c1C(=O)N1CCN(Cc2ccc3c(c2)OCO3)CC1 | 0.2 | -0.2 | 8.8 | 4.4 | 1.1% | -10.1
13 | COc1ccccc1OCC(=O)NCc1ccco1 | -6.1 | -0.7 | 0.4 | -2.8 | ? | -15.4
14 | Cc1cc(OC(C)C(=O)N2CCN(c3ccc(F)cc3)CC2)c2c(C)cc(=O)oc2c1 (stereo unspecified) | 18.0 | 0.0 | 0.2 | -1.7 | -0.1% | -21.7
15 | O=C(CCn1ccc2cc(S(=O)(=O)N3CCCC3)ccc21)NCc1ccccc1 | -3.6 | 0.2 | 13.4 | -10.0 | 0.5% | -3.0
16 | Cc1ccc2ccccc2c1CSc1nc(N)nc2c1ncn2CC(C)C | -16.1 | 2.7 | -3.3 | 0.4 | -0.2% | -17.2
17 | O=C(Cc1ccccc1)NNC(=S)NC(=O)c1cccs1 | -5.0 | 1.2 | -3.8 | 13.4 | 0.4% | -14.9
18 | CC(C)(C)OC(=O)N[C@@H](C(=O)OC(C)(C)C)c1ccc2c(c1)OCO2 | 1.8 | 1.7 | -2.0 | -6.1 | 3.0% | -3.3
19 | CN(C)C(=O)N(CCCN1CCOCC1)Cc1cccc2ccccc12 | 12.1 | 0.0 | 12.9 | -2.3 | -0.4% | -9.8
20 | Cc1cc(=O)cc(C)n1-c1ccc(F)cc1F | -7.7 | 1.5 | 1.5 | -0.8 | -1.2% | ?
21 | Cc1ccc(CNC(=O)c2[nH]c(C(F)(F)F)nc2-c2ccccc2)cc1 | 7.3 | -0.2 | -20.6 | -1.4 | 1.4% | -6.6
22 | COc1ccc(/C=C2\CCc3ccccc3C2=O)c(OC)c1OC | 16.9 | 4.0 | -3.8 | -2.2 | 3.7% | -8.1
23 | CCC1CCC/C1=N\NC(=O)c1ccc(Cl)cc1 (stereo unspecified) | 25.6 | -0.6 | 6.3 | -0.4 | 2.9% | -23.3
24 | Cc1ccc(-c2nc(-c3ccncc3)no2)cc1 | -1.3 | -1.4 | -6.1 | -0.5 | 0.5% | -7.1
25 | O=S(=O)(NCC1CCCO1)c1ccc(Oc2ccccc2)cc1 (stereo unspecified) | -14.8 | 1.7 | 3.1 | -2.6 | 5.9%[38.3 µM] | 4.8

# Arranged by SMILES length (rising): part of the list above.
nr | Molecule | TRPML1 inh | TRPML1 agonist | Six1-Eya2 inh | D2 ag | PINK1 expr mod | D2 potentiator
5 | CCNC(=S)NNC(=O)c1cc(Br)cs1 | 20.9 | -0.5 | -3.0 | -4.8 | -1.1% | -37.1
24 | Cc1ccc(-c2nc(-c3ccncc3)no2)cc1 | -1.3 | -1.4 | -6.1 | -0.5 | 0.5% | -7.1
17 | O=C(Cc1ccccc1)NNC(=S)NC(=O)c1cccs1 | -5.0 | 1.2 | -3.8 | 13.4 | 0.4% | -14.9
4 | CCOC(=O)c1cc2c(ccn2C)n1Cc1ccc(C#N)cc1 | 4.3 | -0.3 | ? | 1.0 | -1.0% | -16.2
22 | COc1ccc(/C=C2\CCc3ccccc3C2=O)c(OC)c1OC | 16.9 | 4.0 | -3.8 | -2.2 | 3.7% | -8.1
21 | Cc1ccc(CNC(=O)c2[nH]c(C(F)(F)F)nc2-c2ccccc2)cc1 | 7.3 | -0.2 | -20.6 | -1.4 | 1.4% | -6.6
11 | COc1ccccc1CNC(=O)CCn1nc(C)c2c(C)n(-c3ccccc3)nc2c1=O | -1.7 | -1.0 | . | . | -1.5% | .
18 | CC(C)(C)OC(=O)N[C@@H](C(=O)OC(C)(C)C)c1ccc2c(c1)OCO2 | 1.8 | 1.7 | -2.0 | -6.1 | 3.0% | -3.3
14 | Cc1cc(OC(C)C(=O)N2CCN(c3ccc(F)cc3)CC2)c2c(C)cc(=O)oc2c1 (stereo unspecified) | 18.0 | 0.0 | 0.2 | -1.7 | -0.1% | -21.7

# More entries follow:
nr | Molecule | TRPML1 inh | TRPML1 agonist | Six1-Eya2 inh | D2 ag | PINK1 expr mod | D2 potentiator
26 | NC(=O)C[C@@H]1NC(=O)[C@H](CCC(=O)O)NC(=O)c2cc([N+](=O)[O-])cc(I)c2OCC[C@@H](C(N)=O)NC1=O | -19.0 | -0.7 | -2.0 | -2.7 | 0.9% | -25.1
27 | O=C(O)CSc1c2c(nc3cc(C(=O)N4CCOCC4)ccc13)CCCC2 | -9.8 | 0.0 | -18.1 | -0.6 | 1.5%[38.3 µM] | 3.0
28 | CCC1CN(C(=O)Nc2ccc(C)cc2)c2cc(C)ccc2O1 (stereo unspecified) | -14.1 | 0.7 | -15.0 | -2.2 | 3.9% | -4.8
29 | CC(=O)Nc1ccc(SCC(=O)c2cc(C)n(-c3ccccc3F)c2C)cc1 | 7.8 | 2.7 | -29.4 | -1.7 | 8.4% | -6.2
30 | C/C(=N\NC(=O)C1(C)CC1(Br)Br)c1cccc(NC(=O)c2ccc(C)o2)c1 (stereo unspecified) | 0.3 | 2.2 | -8.6 | -3.5 | -3.6% | -0.9
31 | Cc1cc(C(=O)CSc2nn3c(=O)c(C(C)(C)C)nnc3s2)c(C)n1C | 19.5 | 0.3 | -1.8 | -1.2 | 2.9% | -16.1
32 | CCc1nc(C)cn1S(=O)(=O)c1cc(Br)c(C)cc1OC | 4.0 | -0.5 | -4.9 | -1.3 | -0.3% | -12.0
33 | COC(=O)CSc1[nH]c(=O)cc(C)c1C#N | -6.7 | 0.2 | 5.3 | -2.9 | 1.2% | -1.2
34 | CC(C)(C)NC(=O)NC(=O)COC(=O)CNC(=O)C1CCCCC1 | 11.4 | -0.5 | 8.6 | -5.0 | -1.6% | -25.3
35 | CN(C)S(=O)(=O)c1ccc(C(=O)NCCSc2c(-c3ccc(Br)cc3)[nH]c3ccccc23)cc1 | 3.6 | -0.1 | . | . | -0.4% | .
36 | O=C(COc1coc(CN2CCN(c3ccc(F)cc3)CC2)cc1=O)NC1CCCCC1 | 2.7 | 0.0 | 7.2 | -5.4 | 0.7% | -14.1
37 | O=c1c2ccccc2nc(/C=C/c2ccc(O)cc2)n1CCc1ccccc1 | 45.2 | 3.3 | 4.9 | -2.1 | 11.1% | 9.3
38 | O=C(NCc1ccc(F)cc1)C(c1ccccc1)N(CC1CCCO1)C(=O)Cn1nnc2ccccc21 (stereo unspecified) | 15.2 | -0.3 | -0.4 | -0.7 | -1.5% | 2.0
39 | CC(=O)Nc1nc(-c2ccccc2)cc(-c2ccco2)c1C#N | 6.9 | -0.9 | -1.7 | -2.6 | 18.4% | -4.7
40 | Cc1noc(C)c1C(=O)OCC(=O)NC(=O)c1ccc(C(C)(C)C)cc1 | -9.6 | -0.1 | 15.1 | -0.3 | 0.7% | 3.2
41 | O=C1CCC(C(=O)N2CCSCC2)CN1Cc1cccc(C(F)(F)F)c1 (stereo unspecified) | 5.9 | 0.5 | -1.3 | -1.6 | 2.4% | 7.7
42 | CSc1ccccc1OCc1cc(C(=O)NCCc2nc(C)cc(C)n2)no1 | 9.8 | 2.2 | 0.0 | 3.6 | 0.7% | -4.9
43 | O=C(CC1C(=O)N(c2ccccc2)C(=O)N1C1CCCCC1)Nc1ccccc1 (stereo unspecified) | -16.8 | 2.5 | 0.2 | -0.5 | -2.0% | -0.4
44 | O=C(Nc1nc2c(F)cc(F)cc2s1)c1ccc(S(=O)(=O)N2CCc3ccccc32)cc1 | 27.3 | 1.4 | . | . | 15.8µM* | .
45 | Cc1ccc(N(CCC#N)C(=O)COC(=O)C2=COCCO2)cc1 | -7.2 | -0.5 | 8.5 | -2.8 | -1.4% | 1.8
46 | O=C(Nc1ccc(F)cc1F)c1ccc(-n2cnnc2)cc1 | -8.0 | -0.8 | . | . | 1.6% | .
47 | N#Cc1c(NC(=O)CN2C(=O)c3ccccc3C2=O)oc(-c2ccccc2)c1-c1ccccc1 | 0.9 | 1.3 | -24.6 | -1.2 | -0.6%[38.3 µM] | 1.0
48 | CCn1c(C(=O)NCc2cccc(Br)c2)cc2oc3ccccc3c21 | -10.5 | 0.3 | . | . | 0.0% | .
49 | CCOc1cc(/C=N\Nc2nc(-c3ccc(C)cc3)c(NC(C)=O)s2)ccc1O | 2.2 | 0.6 | -22.3 | 5.5 | 3.6% | 0.7
50 | CCNC(=S)N1CCNC(=O)C1CC(=O)OC (stereo unspecified) | -6.4 | 0.3 | 13.9 | 2.8 | 1.3% | 0.8
51 | Cc1ccc(C2(O)CN(c3ccccc3C)C3=[N+]2CCS3)cc1 (stereo unspecified) | 22.0 | 0.8 | 0.5 | -1.4 | 2.3% | -27.9
52 | Cc1cc(O)c(Sc2ncn[nH]2)cc1NS(=O)(=O)c1ccc(Cl)cc1 | -4.9 | 0.5 | -0.1 | 5.9 | 1.8% | 19.8
53 | COc1ccc(CN2CCn3ncc(C(=O)Nc4cccc(C)c4)c3C2=O)cc1 | 10.6 | 2.4 | 10.6 | 4.6 | -0.2% | -0.5
54 | Cc1sc2ncnc(N3CCC(C(=O)N(C)CC(=O)Nc4cccc(F)c4)CC3)c2c1C | 2.6 | -0.4 | -16.9 | 6.4 | 0.2% | -20.9
55 | CC(C)(C)c1ccc(-c2cc(-c3ccccc3O)[nH]n2)cc1 | 9.6 | 1.2 | -23.3 | 4.5 | 13.8% | -5.2

# Bioassay records (PubChem)
